Assay outcomes from PubChem BioAssay.
RecA intein inh: blocks M. tuberculosis RecA intein splicing. 290,000 tested, 0.75% active. inhibition, %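 (about 9 µM by stock and volumes)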. AID 2221. P9WHJ3. cell-free RecA intein splicing, fluorescence; in the data active = inhibition above about 30%; inconclusive = no clear call, values can overlap the other calls;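 also: 0% = vehicle wells and 100% = reference inhibitor control wells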
Target sequence (P9WHJ3 whole entry, looked up): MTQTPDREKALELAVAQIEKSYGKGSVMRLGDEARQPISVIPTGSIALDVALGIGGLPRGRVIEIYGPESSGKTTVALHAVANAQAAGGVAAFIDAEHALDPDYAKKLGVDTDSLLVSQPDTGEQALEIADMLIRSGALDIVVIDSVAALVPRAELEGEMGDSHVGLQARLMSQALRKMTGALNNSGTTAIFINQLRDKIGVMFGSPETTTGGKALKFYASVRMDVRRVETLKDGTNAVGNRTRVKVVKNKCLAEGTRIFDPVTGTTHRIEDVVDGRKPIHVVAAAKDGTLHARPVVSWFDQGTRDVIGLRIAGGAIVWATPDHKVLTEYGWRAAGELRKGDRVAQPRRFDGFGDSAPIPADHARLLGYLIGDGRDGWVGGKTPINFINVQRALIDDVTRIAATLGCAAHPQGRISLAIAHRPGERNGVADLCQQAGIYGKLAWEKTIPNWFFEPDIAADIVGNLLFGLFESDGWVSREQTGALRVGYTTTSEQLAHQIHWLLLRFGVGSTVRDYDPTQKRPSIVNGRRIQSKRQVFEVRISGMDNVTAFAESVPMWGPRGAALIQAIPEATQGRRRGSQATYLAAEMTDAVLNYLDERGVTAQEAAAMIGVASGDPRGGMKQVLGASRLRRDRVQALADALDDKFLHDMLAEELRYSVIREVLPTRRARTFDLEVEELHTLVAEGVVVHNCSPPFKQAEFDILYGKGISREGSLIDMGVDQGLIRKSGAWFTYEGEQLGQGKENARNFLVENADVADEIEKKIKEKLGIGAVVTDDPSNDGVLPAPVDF
YopH inh: YopH (Yersinia) phosphatase inhibition. fluorescence Ex485/Em525. inhibition, %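 (about 10 µM by stock and volumes)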. 140,000 tested, 0.16% active;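 active = inhibition of 50% or more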;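 also: controls were vehicle for no effect and minimum signal wells for full effect; inactives centre near -20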
Mtb H37Rv: M. tuberculosis H37Rv growth inhibitors, H37Rv strain (AID 1626) | M. tuberculosis H37Rv growth inhibition; higher % means a stronger effect | inhibition, % at 10 µM; hits with a dose series show IC50 in µM | 220,000 tested, 0.95% active;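 active = confirmed in a dose series; inconclusive = inhibition above 80% but not taken into the dose series; inactive = below 80% or under 30% at every dose of the series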;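 also: bacteria incubated seven days before Alamar blue readout; 0% = bacteria only wells and 100% = bacteria with antibiotic wells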
Mtb bLac sens: beta-lactam sensitization of Mtb H37Rv; M. tuberculosis H37Rv growth with meropenem, percent inhibition; hits of this screen are not shown here; inhibition, % at 25 µM; 330,000 tested, 0.27% active; AID 434955;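 active = about 74% or more and at least 40 points above the plate without the antibiotic, then above 30% in a dose series; inconclusive = first-round hits that could not be retested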;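 also: growth measured after seven days incubation then overnight dye step; 0% = bacteria only wells and 100% = bacteria with antibiotic; twin plates without the antibiotic show which effects depend on it; some results filed as inactive read as strong as hits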
Arbovirus anti: arbovirus infection inhibition; inhibition, % at 10 µM; 200,000 tested, 0.37% active; arbovirus infection cell-based antiviral screen;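 active = inhibition from about 30%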;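 also: bluetongue infection of BSR cells; cell survival read as ATP light after 72 h; 0% = infected wells without compound and 100% = uninfected wells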
Arbovirus anti repeat: also measured in Arbovirus anti; calls as there; inhibition, %; measured here: 10K subset replicate screen; many hits read low in the repeat;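 first of two repeat runs on a subset; 0% = infected and 100% = uninfected wells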
An asterisk follows results filed as active; ? = inconclusive; . = no result given. A portion of the library, so the mix of outcomes need not match the whole.

SMILES	RecA intein inh	YopH inh	Mtb H37Rv	Mtb bLac sens	Arbovirus anti	others
Oc1ccc(-c2[nH]ncc2-c2cccc3cccnc23)c(O)c1	-3.2	-11	-5%	0	14
CCC(Cc1ccccc1)NC(=O)/C=C/c1ccco1 (stereo not given)	1.5	.	.	2	.
CCOCCCNC(=O)CNC(=S)N(Cc1ccccc1F)C1CCCCC1	-7.1	11	-7%	-8	6
COC(=O)c1ccc(/C=N/OCC(=O)Nc2cc(F)ccc2F)cc1	5.7	.	71%	75	3
COC(=O)c1ccc(NC(=O)c2ccc[n+]([O-])c2)cc1	-0.2	.	.	-9	.
COc1cccc(CN(C)C(=O)c2ccc(COc3ccc(Cl)cc3)cc2)c1OC	10	.	.	59	.
CCOc1ccc(N(CC(=O)NCCOc2ccccc2OC)S(=O)(=O)c2ccccc2)cc1	-0.5	.	.	-2	.
COc1cc(NC(=O)CCNC(=O)Cn2cnc3ccccc3c2=O)cc(OC)c1OC	.	15	-6%	10	9
C=CCOc1ccc(/C=N/NC(C)=O)cc1OCC	-0.5	.	0%	-1	0
COc1ccc(NCc2nnc(SCCN3CCCCC3)n2-c2ccc(C)cc2)cc1	-3.3	.	-5%	8	9
S=C(Nc1ccccc1Cl)N1CCN(c2ccccn2)CC1	-3.4	.	.	1	.
CC(C)(C)C1c2[nH]c3ccccc3c2CCN1CCCn1cccn1 (stereo not given)	-1.8	.	-3%	-4	-5
COc1ccc(N2CCN(C(=O)c3c(-c4c(F)cccc4Cl)noc3C)CC2)cc1	0.1	.	.	-6	.
Oc1c(Br)cc(Br)cc1C=Nc1ccc2[nH]ncc2c1	7.6	.	-2%	0	.
COc1ccc(-n2ncc3c2CC(C)(C)CC3NC(=O)c2oc(C)cc2C)cc1 (stereo not given)	0.0	.	.	4	.
O=C1CCCC2=C1C(c1ccc(Cl)cc1)N1C(=O)CCSC1=N2 (stereo not given)	2.2	13	-8%	2	5
CCCOc1ccc(N2C(=O)CC(NCCNc3ccc([N+](=O)[O-])cn3)C2=O)cc1 (stereo not given)	1.4	.	-3%	-4	.
CC(C)Cn1c2c(c(O)c(C(=O)Nc3ncccc3O)c1=O)CCCC2	1.1	17	-9%	45	-25
CCCc1nnc(SCC(=O)Nc2ccccc2Cl)n1CC1CCCO1 (stereo not given)	0.1	.	.	-4	.
COC(=O)c1cn(CC(=O)N2C(C)CCCC2C)c2ccccc12 (stereo not given)	-2.8	-17	0%	8	13
O=C(Nc1ccc2c(c1)OCO2)c1ccc(COc2ccc3c(c2)CCC3)o1	5.8	-22	60%	6	-35
COc1ccc(-c2csc(NC(=O)c3cccc(S(=O)(=O)N4CCN(C)CC4)c3)n2)cc1	0.9	11	7%	0	9
Cc1onc(-c2c(F)cccc2Cl)c1C(=O)OCc1cnc(Cl)s1	5.9	.	4%	-6	8
Cc1ccc(-c2csc3ncnc(Oc4cccc5ccc(C)nc45)c23)cc1	-0.9	-23	2%	0	-6
CCCCn1nc(C)c(C(=O)O)c1Cl	-16	.	-3%	-2	.

Continued:
SMILES	RecA intein inh	YopH inh	Mtb H37Rv	Mtb bLac sens	Arbovirus anti	others
O=c1[nH]c(Nc2ccc(F)cc2)cc2ccccc12	65*	90*	3%	-11	-1
CCOc1ccc(N2CC(=O)N/C2=N\c2nc(C)cc(C)n2)cc1	-4.0	-51	-22%	23	-4
O=C(COC(=O)CC1Sc2ccccc2NC1=O)NCc1ccccc1 (stereo not given)	0.4	.	.	-6	.
CCOC(=O)CN1C(=O)C(O)(CC(=O)c2ccc3c(c2)CCCC3)c2ccccc21 (stereo not given)	9.2	2	14%	-9	-11
O=C(CC1SC(=O)N(Cc2ccccc2)C1=O)Nc1nccs1 (stereo not given)	0.8	-35	-8%	-6	-2
NC(=O)CC(NC(=O)c1cccc(Br)c1)c1ccc(NC2CCCCCCC2)c([N+](=O)[O-])c1 (stereo not given)	0.5	.	.	58	.
CC(NC(=O)c1cc(-c2ccncc2)nc2ccc(Cl)cc12)C1CCCO1 (stereo not given)	1.4	.	.	8	.
O=C(Nc1nc2c(Cl)cccc2s1)c1ccc([N+](=O)[O-])o1	-8.3	.	.	99	.
CCc1ccc(NC(=O)CCNS(=O)(=O)c2cccs2)cc1	1.3	.	.	90	.
CCOC(=O)/C(C#N)=C/c1ccc(OCC(=O)Nc2ccc(C)c(C)c2)c(OC)c1	0.8	-17	7%	17	6
CCOC(=O)C1CCCN(S(=O)(=O)c2ccc(NC(C)=O)cc2)C1 (stereo not given)	0.9	.	-8%	-2	6
COc1ccccc1OCCC(=O)O	-0.3	.	1%	8	2
O=C(Nc1c2c(nc3ccccc13)CCCC2)c1ccccc1F	-1.1	-15	5%	.	-2
CS(=O)(=O)c1cccc(S(=O)(=O)N2CCCCCC2)c1	-2.1	.	.	-7	.
CCCC(C)NNC(=O)c1cc2ccccc2[nH]1 (stereo not given)	-0.5	-66	7%	16	-12
O=C(NN1C(=O)C2C3c4ccccc4C(c4ccccc43)C2C1=O)c1ccc(Cl)cc1 (stereo not given)	4.1	-5	7%	1	-4
O=C(c1ccco1)N1CCc2ccccc21	-0.4	.	1%	-7	0
C=CCSC1=NC(=O)/C(=C/c2cccs2)S1	.	-15	1%	-1	11
Cc1cc(C)nc(NC(=O)c2cnc3sccn3c2=O)n1	2.6	-17	2%	0	5	Arbovirus anti repeat=2
CC(=O)Cn1cnc2c(cnn2-c2ccc(C)c(C)c2)c1=O	0.2	.	.	1	.
Cc1ccc2c(c1)c(CC(=O)Nc1ccc(C)c(F)c1)c(C(=O)O)n2C	-0.6	-35	-2%	-7	22
COc1cccc(C(=O)Cn2c(Br)nc3c2c(=O)n(C)c(=O)n3C)c1	1.8	-29	3%	-8	-2
CCC1CCCCN1C(=O)CCCc1ccccc1 (stereo not given)	1.5	.	.	-1	.
CCC1CN(C(=O)NCc2ccccc2)c2cc(C)ccc2O1 (stereo not given)	0.1	.	.	9	.
Clc1ccc(-c2noc(/C=C/c3ccccc3)n2)cc1	-0.8	.	-11%	-7	.

Carrying on.
SMILES	RecA intein inh	YopH inh	Mtb H37Rv	Mtb bLac sens	Arbovirus anti	others
Cn1nc(C(=O)NCc2ccco2)c2ccccc2c1=O	-0.6	6	2%	-4	0
O=C(NN(c1ccccc1)c1ccccc1)c1ccccc1F	4.2	.	.	6	.
COc1ccc(-c2csc3ncn(-c4ccccc4OC)c(=O)c23)cc1OC	4.0	.	.	-5	-12
COCCNC(=S)N/N=C1\CC(C)CC(C)(C)C1 (stereo not given)	-0.3	.	1%	.	3
Cc1ccc(F)cc1NC(=O)c1cccc2nccnc12	-0.9	-20	-8%	?	-1
CCc1ccccc1NC(=O)CC(=O)Nc1ccccc1CC	0.1	.	.	-5	.
O=C(NCc1ccco1)C1CCCN(c2ncnc3c2nc2n3CCCCC2)C1 (stereo not given)	-1.8	.	.	6	.
CCC(C)N(CCNC(=O)CC1Oc2ccccc2NC1=O)C1CCCCC1 (stereo not given)	.	-9	-4%	9	3
Cc1nonc1NC(=O)CSc1nc2ccccc2o1	-1.2	.	.	-1	.
O=C(CCNC(=O)c1ccc(Br)cc1)Nc1cccc(S(=O)(=O)N2CCCCC2)c1	3.5	.	.	-9	.
Cc1ccc(O)c(C2=NOC(O)(C(F)(F)F)C2)c1 (stereo not given)	-7.4	-14	7%	-2	9
O=C(CSc1ncn[nH]1)NN(c1ccccc1)c1ccccc1	0.0	-1	-6%	-2	3
Cc1cc(C(=O)Nc2ccc3[nH]ccc3c2)no1	1.5	.	-6%	-5	.
C/C(=C\C(=O)c1ccc(Cl)cc1)Nc1ccc(Br)cc1	0.0	-29	12%	55	.
COc1cc(CO)cc(Br)c1OCc1cccnc1	.	-34	-6%	-1	2
CCn1cc(C(=O)NCCN(CC(C)C)CC(C)C)c(=O)c2cc(S(=O)(=O)N3CCOCC3)ccc21	1.2	.	.	3	.
CCOC(=O)CSc1ccc2nnc(-c3ccncc3)n2n1	-0.2	-21	3%	1	9
Cc1c(OCC(=O)NCc2ccncc2)ccc2c3c(c(=O)oc12)CCC3	-2.0	.	.	7	.
CCOC(=O)N1CCC(NC(=O)CC2C(=O)NCCN2Cc2ccc(C)cc2)CC1 (stereo not given)	-0.5	.	.	-5	.
Cc1ccccc1NC(=O)C1CC(=O)n2ncnc2N1 (stereo not given)	1.3	.	-2%	-4	.
FC(F)(F)c1nnc2ccc(N3CCCC3)nn12	-1.4	-13	-2%	-6	-3
Cc1ccccc1NC(=O)CSc1nnc(-c2ccccn2)o1	0.2	.	.	2	.
Clc1ccc(-c2csc3ncnc(Cl)c23)cc1	13	-15	4%	-1	6
C=CCC1(C(=O)NCCO)CCN(C(=O)OC(C)(C)C)CC1	-1.3	.	.	-11	.
COc1cc(C)c(C(=O)Oc2cc(C)c(C(=O)O)c(O)c2)c(O)c1	.	.	-6%	2	.

Additional records
SMILES	RecA intein inh	YopH inh	Mtb H37Rv	Mtb bLac sens	Arbovirus anti	others
Cc1ccc(OC2=NS(=O)(=O)c3ccccc32)cc1	-1.0	-21	-7%	2	-7
O=C(O)c1cc(-c2ccccc2)n(-c2ccc(Cl)cc2Cl)n1	1.0	.	.	-3	.
CCOC(=O)C(CC)(CC)/C(C)=N/NC(=O)CC#N	-1.6	9	-5%	-3	1
CC(Oc1ccc2c3c(c(=O)oc2c1)CCCC3)C(=O)NCCCn1ccnc1 (stereo not given)	2.9	.	.	0	.
CCN(CC)CCNC(=O)c1c(O)c2cc(OC)c(OC)cc2[nH]c1=O	-0.9	-13	.	3	6
CCOc1ccc(-n2nc(C(=O)NCCOC)c3ccccc3c2=O)cc1	.	-25	-4%	-4	2
Cc1cc(OC(=O)c2ccc(Cl)cc2Cl)nc(C)n1	-1.0	-23	-1%	1	7
COc1cccc(CC(=O)Nc2cccc3ccccc23)c1	0.6	.	.	4	.
O=C(Nc1ccccc1Cl)NC1(C(=O)NCC2CCCO2)CCCCC1 (stereo not given)	0.5	.	.	-6	.
CC(C)C(=O)Nc1csc(C(F)(F)F)c1-c1ccccc1	.	.	-7%	-3	.
